# Screening data: PubChem, National Center for Advancing Translational Sciences (NCATS)
# N370S GC mod – qHTS Assay for Inhibitors and Activators of N370S glucocerebrosidase as a Potential Chaperone Treatment of Gaucher Disease | 0.092% of 330,000 active | Potency, µM (highest dose often 59.4 µM), without a hit: at the top dose activity change, negative = inhibition, actives largely listed as inhibitors | AID 2101, 2009 | N370S GC spleen homogenate, 4MU-glucoside fluorescence;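 further: 0% = full enzyme activity and -100% = no enzyme basal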
# KAT2A inh – qHTS Assay for Inhibitors of GCN5L2; Potency, µM (top dose mostly 58.9 µM), inactives show at the highest dose activity change, negative = inhibition, usual class: inhibitors; 0.21% of 390,000 active; AID 504327, 2011; GCN5L2 HAT assay, ThioGlo1 CoA-SH fluorescence
# Target sequence (Q92830 whole entry, looked up): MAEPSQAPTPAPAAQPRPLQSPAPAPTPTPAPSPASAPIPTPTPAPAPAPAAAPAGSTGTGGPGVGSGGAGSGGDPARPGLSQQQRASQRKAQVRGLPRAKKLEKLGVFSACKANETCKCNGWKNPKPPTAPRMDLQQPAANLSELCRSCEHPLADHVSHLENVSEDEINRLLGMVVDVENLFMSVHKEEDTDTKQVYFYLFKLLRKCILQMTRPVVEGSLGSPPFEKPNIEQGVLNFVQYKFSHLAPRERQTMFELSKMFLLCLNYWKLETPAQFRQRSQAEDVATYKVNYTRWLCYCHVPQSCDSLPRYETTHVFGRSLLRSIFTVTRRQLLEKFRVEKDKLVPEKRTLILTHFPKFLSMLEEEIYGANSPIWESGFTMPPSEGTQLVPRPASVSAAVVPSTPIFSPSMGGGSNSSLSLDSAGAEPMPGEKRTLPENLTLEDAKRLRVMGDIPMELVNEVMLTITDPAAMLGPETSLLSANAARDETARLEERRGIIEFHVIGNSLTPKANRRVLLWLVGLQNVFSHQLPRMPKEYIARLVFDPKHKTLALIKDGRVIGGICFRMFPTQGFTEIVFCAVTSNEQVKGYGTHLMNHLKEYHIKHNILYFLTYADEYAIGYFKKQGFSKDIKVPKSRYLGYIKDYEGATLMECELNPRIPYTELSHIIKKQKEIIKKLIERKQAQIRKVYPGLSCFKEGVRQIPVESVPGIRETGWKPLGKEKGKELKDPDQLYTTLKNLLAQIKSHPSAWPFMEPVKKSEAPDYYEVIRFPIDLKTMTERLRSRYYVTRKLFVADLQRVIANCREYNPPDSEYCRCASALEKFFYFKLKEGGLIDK
#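 Preincubate 20nM GCN5L2 with compound 15 min, RT → add 50uM ThioGlo1 + 75uM H3(1-25) + 70uM acetyl-CoA → read fluorescence 0 and 20 min. Primary qHTS; fluorescent artifacts likely.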
# * marks the source's active call; other numbers are inactive results; ? = inconclusive; nt = no result given; & = joins results of further samples; [ ] = another dose, or the depositor's remark. The call rests on the fitted dose curve; in most records, active means well fitted curve in the direction sought with a large enough effect; inconclusive means small, poorly fitted or top-dose-only effect, or another doubt; inactive means no such curve, though single readings can be large; an effect the other way counts as inactive or inconclusive. Unless noted, on the % scale 0 is the no-effect control and ±100 the full control effect; potency means the concentration at half of the fitted maximal effect. The list is partial, and most or all hits are left out here.
KAT2A inh | N370S GC mod | compound
-6% | 8% | CSCC[C@H](NC(=O)CCCn1nnc2ccccc2c1=O)C(=O)O
-8% | nt | COc1cc(C#Cc2ccc3cc(C(C)(C)O)oc(=O)c3c2)cc(OC)c1
-5% | 18% | O=C(COC(=O)[C@H](Cc1c[nH]c2ccccc12)NC(=O)c1ccc(Cl)cc1)Nc1ccc2c(c1)OCO2
2% | 0% | Cc1ccc(OCCOC(=O)CCc2nc3ccccc3c(=O)[nH]2)cc1
-5% | 11% | CCn1c(C)nc2cc(C(=O)N/N=C(\C)c3ccccc3O)ccc21
12% | 12% | CC(Sc1nc2ccccc2c(=O)n1Cc1ccco1)C(=O)c1ccccc1 (stereo not drawn)
0% | 2% | O=C(NCCCn1ccnc1)c1cccc(S(=O)(=O)N2CCCCCC2)c1
-6% | -7% | CC(C)(C)NC(=O)NC(=O)CN1CCc2ccccc21
-6% | -10% | Fc1cccc(Cl)c1CNCc1ccccc1Cl
-2% | 6% | Cc1nn(C)c(C)c1S(=O)(=O)N(CC(=O)N1CCc2ccccc2C1)c1ccc(C(C)C)cc1
-15% | -16% | CCn1c(Cn2nnc(-c3ccccc3)n2)nnc1SCC(=O)Nc1ccccc1
-5% | 3% | Cc1cccc(C)c1OCc1nnc(SCC(=O)Nc2nccs2)o1
-13% | -10% | COCCNC(=O)c1ccc2c(=O)n(Cc3ccco3)c(SCC(=O)Nc3ccc(OC)cc3OC)nc2c1
-3% | -3% | COc1ccc(OC)c(NC(=O)Cn2cnc3c(cnn3-c3ccccc3)c2=O)c1
2% | nt | O=C(Nc1ccc(Cl)cc1Cl)c1cc(S(=O)(=O)N2CCCCCC2)ccc1F
-6% | 14% | O=C(CSc1nc(-c2ccccc2)nn1C(=O)c1ccccc1)Nc1cccc([N+](=O)[O-])c1
-5% | -8% | COc1ccc(Nc2ccc(Cl)nn2)cc1
-12% | -3% | N#CCCn1cc(C(=O)O)c(-c2cccs2)n1
-7% | ? | CC1(C(=O)O)CCC(C(=O)Nc2ccc(F)cc2)C1(C)C (stereo not drawn)
1% | nt | COc1ccc(NC(=O)c2nnn(Cc3ccc(Br)cc3F)c2N)c(OC)c1

# Single records (already shown):
# Cc1ccc(OCCOC(=O)CCc2nc3ccccc3c(=O)[nH]2)cc1 in the list: KAT2A inh: 2%; N370S GC mod: 0%
# O=C(Nc1ccc(Cl)cc1Cl)c1cc(S(=O)(=O)N2CCCCCC2)ccc1F in the list: KAT2A inh: 2%; N370S GC mod: nt

# Further structures follow.
KAT2A inh | N370S GC mod | compound
-2% | 0% | COc1ccccc1CNS(=O)(=O)c1cccc(S(=O)(=O)N2CCOCC2)c1
1% | -2% | O=C(NC(=S)N1CCCCCC1)c1ccccc1
-11% | -12% | CC(=O)Nc1ccc(NC(=O)CSc2ccc3nnc(-c4cccnc4)n3n2)cc1
-1% | -1% | COC(=O)c1ccc2c(c1)NC1=C(C(=O)CC(C)(C)C1)C(c1ccncc1)N2 (stereo not drawn)
-2% | -6% | CC1=CN2C(=N)/C(=C/c3ccc(C)o3)C(=O)N=C2S1
-2% | -4%[2.35 µM] | Cc1ccc(-c2ccc(C(=O)O)[nH]2)cc1
0% | 10µM* | Cc1cc(N)n2nc(-c3ccc(C(C)(C)C)cc3)cc2n1
-15% | 3% | Cc1ccc(-n2cc(C(=O)c3ccc(F)cc3)nn2)cc1Cl
13% | -1% | CCCC(CCC)C(=O)NC1CCN(Cc2ccccc2)CC1
-5% | nt | Cc1ccc(NC(=O)Cc2n[nH]c(=O)c3ccccc23)cc1S(=O)(=O)N1CCCCCC1
-1% | nt | Cc1noc(C)c1S(=O)(=O)N(C)C[C@H]1Oc2ccc(NC(=O)C3CCCCC3)cc2C(=O)N([C@H](C)CO)C[C@@H]1C
-2% | 2% | Cc1ccc2c(C)ccc(O)c2n1
-17% | -5% | O=C(NCc1cc(C(F)(F)F)cc(C(F)(F)F)c1)C1CC(c2cccc([N+](=O)[O-])c2)=NO1 (stereo not drawn)
4% | 9% | Cc1ccc(NC(=O)/C=C\C(=O)NCC(=O)O)cc1
-19% | nt | CCCn1c2ccccc2c2cnn(CC(=O)N(CC)c3cc(C)ccc3C)c(=O)c21
3% | 3% | CCOc1ccc(NC2=NC(C(=O)NCc3ccccc3)CC(=O)N2)cc1 (stereo not drawn)
-5% | 1% | O=C(CCS(=O)(=O)c1ccc(Br)cc1)Nc1ccc(Br)cc1F
? | -1% | CC1CCCC(NC(=O)CCCn2c(=O)[nH]c3cc(Cl)ccc3c2=O)C1C (stereo not drawn)
-15% | nt | Cc1c(C(=O)N2CCN(S(=O)(=O)c3cc(F)ccc3F)CC2)oc2ccccc12
-6% | -2% | O=C(Nc1cccc(Cl)c1)c1cc(S(=O)(=O)NCCc2ccc(Cl)cc2)ccc1F
-20% | -24% | O=C(Oc1ccc(/C=N/NC(=O)c2ccccc2O)cc1)c1ccccc1
2% | -8% | NS(=O)(=O)c1ccc(-c2ccc(/C=N/NC(=O)c3ccccc3O)o2)cc1
0% | 2% | C/C(=N/NC(=O)CN1CCN(S(=O)(=O)c2ccc(Br)cc2)CC1)c1ccncc1
-3% | 2% | O=C(O)CCc1ccc(-c2cccs2)n1NC(=O)c1ccco1
-19% | -10% | COc1ccc(NC(=O)N2CCN(S(C)(=O)=O)CC2)cc1
6% | 1% | COc1ccc(OC)c(-n2nnnc2SCC(=O)Nc2cc(C)ccc2OC)c1
-2% | -13% | CCCn1c(=O)[nH]c(=O)c2c1nc(-c1ccc(OC(F)F)cc1)n2CCN1CCOCC1
-3% | 3% | O=C(CNC(=O)c1ccc(=O)[nH]c1)Nc1ccc(F)c(F)c1
-2% | 0% | Cc1cccc(C(C)C)c1NC(=O)C(C)OC(=O)Cn1cnc2c1c(=O)n(C)c(=O)n2C (stereo not drawn)
-6% | -2% | CCC(C)(C)NC(=O)C(c1cccc(OC)c1OC)N(Cc1ccccc1)C(=O)CCC(=O)Nc1cc(C)on1 (stereo not drawn)

# Structural class: the entries above with a nitro group on carbon (2)
KAT2A inh | N370S GC mod | compound
-6% | 14% | O=C(CSc1nc(-c2ccccc2)nn1C(=O)c1ccccc1)Nc1cccc([N+](=O)[O-])c1
-17% | -5% | O=C(NCc1cc(C(F)(F)F)cc(C(F)(F)F)c1)C1CC(c2cccc([N+](=O)[O-])c2)=NO1 (stereo not drawn)

# Following part.
KAT2A inh | N370S GC mod | compound
2% | 1% | CCCCNC(=O)N1CCCC(N(C)CCc2ccc(OC)c(OC)c2)C1 (stereo not drawn)
6% | 4% | O=C(NCCc1ccccc1)C1CCCN1C(=O)Nc1ccc(F)cc1 (stereo not drawn)
-3% | 18% | COc1ccccc1S(=O)(=O)Cc1ccc(C(=O)NCc2ccc3c(c2)OCO3)o1
2% | nt | COc1cc(NC(=O)CC(C)n2nc(C)cc2C)cc(OC)c1 (stereo not drawn)
-2% | -6% | Cc1ccsc1C(=O)Nc1ccccc1N1CCCC1
-2% | nt | Cc1ccc(NC(=O)C(Cc2ccccc2)NS(=O)(=O)c2ccc3c(c2)oc(=O)n3C)cc1C (stereo not drawn)
42%[activator] | nt | CC(C)NC(=O)CCC(=O)N1Cc2ccccc2Oc2ncccc21
-3% | 4% | O=C(Oc1ccc(N2C(=O)CCC2=O)cc1)c1ccccc1
-6% | -7% | COC(=O)C(Cc1ccccc1)NC(=O)C(N)CC(=O)O (stereo not drawn)
-1% | 15% | O=C(N/N=C/c1ccc(F)cc1)c1ccc(Br)cc1
-2% | 0% | CC1=C(C(N)=O)C(c2ccccn2)n2nc(-c3ccccc3Cl)nc2N1 (stereo not drawn)
-8% | -4% | Cc1cccc(N2CCN(S(=O)(=O)c3cccs3)CC2)c1C
-10% | nt | O=C(CCC1N=C2c3ccccc3N=C(SCC(=O)Nc3ccccc3F)N2C1=O)NCc1cccs1 (stereo not drawn)
-5% | -4% | Brc1c(C[n+]2ccccc2)nc2ccccn12
-7% | 2% | COc1ccc(NC(=O)C(=O)NNC(=O)COc2ccc(OC)cc2)cc1
-2% | 1% | Cc1nc2ccccc2c(C)c1C(=O)c1ccccc1
-5% | -6% | Cc1c(C(=O)NCCC2=CCCCC2)oc2ccc(S(=O)(=O)N3CCOCC3)cc12
-12% | 8% | Cc1ccsc1C(=O)Nc1nnc(-c2ccco2)o1
-3% | 0% | COc1ccc(/C=C/C(=O)O)cc1S(=O)(=O)N1CCC(C)CC1
2%&-7% | -5% | CCOC(=O)C1CCCN(S(=O)(=O)c2cc(Br)cc3c2N(C(C)=O)CC3)C1 (stereo not drawn)
1% | 3% | Cc1ccccc1NC(=O)c1ccccc1NC(=O)CCC(=O)O
-6% | 16% | O=C(Nc1ccc(OC(F)(F)F)cc1)c1n[nH]c(Cn2cncn2)n1
-7% | -1% | c1csc(-c2ccn[nH]2)c1
-11% | 1% | CC(C)C[C@H](NC(=O)N1CCn2c1nc1ccccc12)C(=O)N1CCCCC1
-8% | 8% | Cc1nc2sc3c(c2c(=O)n1NC(=O)CCBr)CCCC3
-3% | 2% | COc1ccc(CNC(=O)COC(=O)CCn2c(C)csc2=O)cc1OC
-1% | 3% | O=C(Nc1ccc(N2CCN(Cc3ccccc3)CC2)cc1)c1cccnc1
-6% | -3% | CCn1c(SCC(=O)Nc2cc(NC(C)=O)ccc2OC)nnc1-c1cccnc1
-3% | 2% | CN(C)C(=S)NC1(C)CCS(=O)(=O)C1 (stereo not drawn)
-5% | nt | CC1(C)CC2CC(C)(CN2S(=O)(=O)c2ccc(F)cc2F)C1 (stereo not drawn)
-7% | nt | c1ccc(CCc2cc3ccccc3[nH]2)cc1
-4% | nt | CCOCCCn1c(=N)c(C(=O)NC(C)c2ccccc2)cc2c(=O)n3cc(C)ccc3nc21 (stereo not drawn)
-1% | 13% | CCOc1nc(S(=O)(=O)c2ccc(C)cc2)c(Cl)s1
-25% | 2% | COc1cc(C(=O)NCCCC2CCCC2)ccc1OC1CCN(C(C)=O)CC1
-6% | nt | CC(C)(C)c1ccc(C(=O)NCCC(=O)NNC(=O)COc2ccccc2F)cc1
-9% | 1% | CC1(C)CC(=O)C2=C(C1)N(Cc1ccc(F)cc1)C(=O)C2(NC(=O)c1cccnc1)C(F)(F)F (stereo not drawn)
-5% | -7% | COc1ccc(S(=O)(=O)N2CCC(C(=O)NCCc3ccc4c(c3)OCO4)CC2)cc1
-2% | -32% | O=C(NCCCN1CCOCC1)c1cc(-c2ccc(F)cc2)on1
2% | 14% | O=C(Nc1nnc(C2CCCC2)s1)C1CCC1
-1% | 2% | CCC(=O)c1ccccc1OCCN1CCN(CC)CC1

# Ordered by value in KAT2A inh (smallest number first): some entries from above.
KAT2A inh | N370S GC mod | compound
-25% | 2% | COc1cc(C(=O)NCCCC2CCCC2)ccc1OC1CCN(C(C)=O)CC1
-8% | nt | COc1cc(C#Cc2ccc3cc(C(C)(C)O)oc(=O)c3c2)cc(OC)c1
-6% | 14% | O=C(CSc1nc(-c2ccccc2)nn1C(=O)c1ccccc1)Nc1cccc([N+](=O)[O-])c1
-2% | nt | Cc1ccc(NC(=O)C(Cc2ccccc2)NS(=O)(=O)c2ccc3c(c2)oc(=O)n3C)cc1C (stereo not drawn)
2% | nt | COc1cc(NC(=O)CC(C)n2nc(C)cc2C)cc(OC)c1 (stereo not drawn)
3% | 3% | CCOc1ccc(NC2=NC(C(=O)NCc3ccccc3)CC(=O)N2)cc1 (stereo not drawn)
6% | 4% | O=C(NCCc1ccccc1)C1CCCN1C(=O)Nc1ccc(F)cc1 (stereo not drawn)

# The results go on.
KAT2A inh | N370S GC mod | compound
-4% | nt | O=C(O[C@@H]1[C@H](Cc2ccccc2)NS(=O)(=O)[C@H]2C[C@@H]3C=C[C@]12O3)c1ccccc1Br
-3% | 3% | CC(=O)c1ccc(NC(=S)NNC(=O)NC2CCCCC2)cc1
-14% | -2% | O=C(N1CCC(O)(c2cccnc2)CC1)C12CC3CC(CC(C3)C1)C2
-3% | -5% | Cc1onc(-c2ccccc2)c1C(=O)NCc1cccc(Cl)c1
2% | -6% | C#CCN1c2ccccc2Sc2cccnc21
-7% | -6% | CCN(CC)C(=O)Oc1ccc2oc(=O)cc(-c3cc4cccc(OC)c4o3)c2c1
1% | -10% | Cc1ccc(NC(=S)N2CCN(C)CC2)c(C)c1
0% | -3% | Cc1ccc(N=Cc2ccc[nH]2)c(O)c1
-1% | 18% | CC(c1ccco1)N(C(=O)c1cccs1)c1ccccn1 (stereo not drawn)
1% | 3% | COCCNC(=O)COc1cccc2c1OC(C)(C)C2
-13% | 3% | O=C(NCc1ccco1)C(=O)NCC1OCCN1C(=O)c1ccc(Cl)cc1 (stereo not drawn)
-4% | nt | O=C(Cn1ncc2c3ccccc3n(Cc3ccccc3)c2c1=O)NC1CCCCCC1
-26% | 20% | Cc1cc(Nc2ccccc2Cl)nc(-c2ccccc2O)n1
0% | 12% | COc1ccc(C(=O)NCc2nnc(SCC(=O)c3ccccc3)o2)cc1
0% | -10% | O=C(CCCN1CCC(O)(c2ccc(Br)cc2)CC1)c1ccc(F)cc1
-1% | -6% | CCOc1ccccc1NC(=O)COc1coc(CN2CCc3ccccc3C2)cc1=O
2% | 7% | COc1ccc(CCNc2oc(COc3ccccc3F)nc2C#N)cc1
5% | -12% | COCC1COS(=O)(=O)NC1(C)C (stereo not drawn)
-2% | 3% | COc1ccccc1C(=O)NC(=O)COC(=O)C1CC2CCCC(C1)C2=O (stereo not drawn)
2% | 1% | N#CCSc1nc2ccccc2o1
0% | -3% | COc1ccc(C(=O)NC2CCCc3c2cnn3-c2cccc(C)c2C)o1 (stereo not drawn)
8% | -1% | COCCCNC(=S)N1CCN(C)CC1
-4%[0.501 µM] | 4% | CN1CCN(CCCNC(=O)c2cn(C3CCCCC3)c(=O)c3c2c2ccccc2n3C)CC1
